FGF22 binding – binders of recombinant human FGF22 by thermal shift; 340,000 compounds, 1.5% hits; AID 651658; SYPRO orange fluorescence; percent of sucrose octasulfate shift, DMSO zero; calls only at 9.99 µM;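 active = melting point raised past a set limit in the mean and every replicate; inconclusive = no clear call; three in four hits are not shown here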
RanGTP-Imp inh – disruptors of Ran-importin-beta complex formation – biochemical, FRET, CFP-Ran, YFP-importin-beta, homogeneous, primary screen. 300,000 compounds, 1.1% hits. cell-free CFP-Ran/YFP-importin-beta FRET ratio. inhibition, % (test concentration not listed);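 active = most replicates above 15%; inconclusive = exactly half above 15%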;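 note: 0% = DMSO wells and 100% = Ran loaded with GDP instead of GTP; wells of about 40 µL received 100 nL stock; the first replicate is given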
HNF4A DNA FP – change in binding of human HNF4 alpha to DNA; 360,000 compounds, 0.3% hits; activity change, % at 10 µM; HNF4a-FITC DNA binding, fluorescence polarization, 1 h; in the data active = activity change above about 30%, passing the limit was not always enough;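 note: controls were the assay level and a saturating level of protein; the project sought stronger binding though the title names inhibitors; some compounds called inactive have numbers as strong as hits; positive values seem to mean higher polarization but the record does not say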
Target sequence (P41235 whole entry, looked up): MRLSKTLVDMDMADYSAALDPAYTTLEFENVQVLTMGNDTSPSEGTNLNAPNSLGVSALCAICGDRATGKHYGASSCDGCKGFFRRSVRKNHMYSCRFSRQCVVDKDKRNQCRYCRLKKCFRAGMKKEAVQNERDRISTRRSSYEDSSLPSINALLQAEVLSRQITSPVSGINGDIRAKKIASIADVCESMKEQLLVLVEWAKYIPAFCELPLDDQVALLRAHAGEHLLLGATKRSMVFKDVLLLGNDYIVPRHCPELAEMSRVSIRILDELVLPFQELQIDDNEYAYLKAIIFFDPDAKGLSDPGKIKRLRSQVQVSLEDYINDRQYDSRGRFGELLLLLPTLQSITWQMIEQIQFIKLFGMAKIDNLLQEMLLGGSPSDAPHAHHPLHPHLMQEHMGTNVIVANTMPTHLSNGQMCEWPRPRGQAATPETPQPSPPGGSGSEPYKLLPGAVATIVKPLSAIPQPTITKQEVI
Vif TR-FRET – HIV-1 Vif–A3G interaction blockers – biochemical, TR-FRET, GST-Vif 1-94, biotin-A3G peptide, dose response retest, primary screen (AID 1117319); TR-FRET GST-Vif / biotin-A3G peptide binding; higher % means a stronger effect; test concentration not given here; strong numbers were not always called active; inhibition, %, or IC50 in µM where a hit was titrated; 260,000 compounds, 0.57% hits;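 active = above the screen mean plus three standard deviations and confirmed in dose response; inconclusive = results disagree or hit not tested in dose response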;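 note: Vif residues 1-94 fused to GST binding biotinylated APOBEC3G peptide 110-148; 0% = full assay without inhibitor and 100% = GST in place of GST-Vif; retest series ran down from 100 µM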
UCH37 inh – inhibitors of human deubiquitinating enzyme UCH37. purified proteasome/UCH37, Ub-AMC cleavage fluorescence. inhibition, % (test concentration not listed). 330,000 compounds, 0.33% hits. AID 588478;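 active = mean of two replicates above 20%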;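 note: 0% = compound-free wells with enzyme and 100% = wells lacking proteasome; stock transfer was 100 nL into about 20 µL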
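System: Proteasome-associated human UCH37 deubiquitinase; Input: 0.15 nM proteasome in added enzyme buffer; Also added: Ub-AMC substrate from 1 µM stock; Incubation: 30 min compound-proteasome preincubation then 25 min substrate reaction, room temperature; Detection: fluorescence, ex 355 nm, em 460 nm; Read-out: % inhibition of Ub-AMC cleavage fluorescence; Benchmarks: no-proteasome and no-compound wells.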
E coli growth – inhibitors of Escherichia coli growth; OD600, 23 h; hits give low values; OD600 absorbance (test concentration not listed); 330,000 compounds, 0.21% hits;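 active = OD600 absorbance below the run mean of sample wells minus 3.6 SD, in any replicate, cut at about 0.56 in these data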;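 note: stock transfer was 300 nL into about 60 µL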
AF4-AF9 inh – MLL-AF4/AF9 protein interaction inhibition | P42568 | AlphaScreen, biotin-AF4 peptide binding to FLAG-AF9 | inhibition, % at 10 µM | 350,000 compounds, 0.47% hits | AID 651704;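 active = every replicate reaching a set inhibition limit, whatever the replicate mean, cut at about 25% in these data; inconclusive = mean inhibition reaches that limit but some replicates miss it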;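 note: 0% = plate neutral control median and 100% = total signal loss; the record names both 10 and 1 µM as test concentration; the first replicate is given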
Target sequence (P42568 whole entry, looked up): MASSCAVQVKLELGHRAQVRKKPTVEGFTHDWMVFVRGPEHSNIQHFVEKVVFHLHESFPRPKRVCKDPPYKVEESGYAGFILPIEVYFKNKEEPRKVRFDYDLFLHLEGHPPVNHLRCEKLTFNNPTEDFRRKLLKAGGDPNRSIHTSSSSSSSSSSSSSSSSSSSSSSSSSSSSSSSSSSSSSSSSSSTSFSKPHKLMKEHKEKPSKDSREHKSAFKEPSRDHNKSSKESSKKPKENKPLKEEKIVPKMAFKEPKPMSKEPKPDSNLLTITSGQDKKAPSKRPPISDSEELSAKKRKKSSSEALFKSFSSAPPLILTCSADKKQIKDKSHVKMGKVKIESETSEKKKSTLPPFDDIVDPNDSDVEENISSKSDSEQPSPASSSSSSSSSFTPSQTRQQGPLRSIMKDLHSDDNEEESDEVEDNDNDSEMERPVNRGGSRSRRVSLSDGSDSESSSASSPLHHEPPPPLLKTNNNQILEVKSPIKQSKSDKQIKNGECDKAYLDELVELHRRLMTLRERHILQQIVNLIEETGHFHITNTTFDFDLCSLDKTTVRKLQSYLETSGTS
* hit, by the source's call; i = inactive; ? = inconclusive; . = no result given; & = joins results of further samples. Some of the compounds tested; rates above refer to the full screens.

SMILES	FGF22 binding	RanGTP-Imp inh	HNF4A DNA FP	Vif TR-FRET	UCH37 inh	E coli growth	AF4-AF9 inh
O=C(Oc1ccccc1)N(c1ccccc1)c1ccccc1	i	2.9	-2.3	.	1.3	0.57	-5.3
COCCN(Cc1cc2cc(C)c(C)cc2nc1Cl)C(=O)Nc1ccccc1	i	-7.7	0.0	24%	2.1	0.7	-3.7
CCOc1ccccc1N(CC(=O)NC1CCCC1)C(=O)CCC(=O)Nc1cc(C)on1	.	4.9	0.8	24%	2.0	0.72	.
COc1ccc(OCc2cc(C(=O)N(C)Cc3cc(C4CC4)n[nH]3)no2)c(Cl)c1	i	1.2	0.9	.	0.6	0.7	-2.8
COC(=O)c1sc(NC(=O)C(C)C)c(C(=O)OC)c1C	.	-3.4	-0.2	-10%	4.9	0.71	.
COc1cc(CCC(=O)OCC(=O)Nc2cc(S(=O)(=O)N3CCOCC3)ccc2Cl)cc(OC)c1OC	i	.	3.3	.	0.5	0.64	-10
O=C(CCC(=O)Nc1ccc(F)cc1)N/N=C/c1c[nH]c2ccccc12	i	?	-0.2	3%	.	.	2.9
C/C(=N\NC(=O)c1c(Br)c(C)nn1C)c1ccc(NC(=O)c2ccoc2C)cc1	i	-1.8	0.6	.	.	.	1.9
COc1cc(NC(=O)c2ccc(F)cc2)c(OC)cc1NC(=O)CN1CCCCC1	i	2.4	-0.1	.	8.6	0.65	4.1
CC(=O)Oc1ccc(OC(C)=O)c(SCCCCCCl)c1	i	0.7	-4.6	0%	2.6	0.7	-0.7
CC(=O)c1c(C)[nH]c(C(=O)Nc2ccc(C)c(S(=O)(=O)Nc3ccc(C)cc3C)c2)c1C	.	-2.5	-0.1	?	1.6	0.67	.
Cc1cccc(NC(=O)C(=O)NCc2ccc3c(c2)OCO3)c1C	i	-0.5	-2.3	4%	3.2	0.71	-0.8
Cc1ccc2oc(=O)cc(CN3CCOCC3)c2c1	.	1.6	0.5	3%	5.8	0.7	.
COC(=O)c1ccc(CNS(=O)(=O)c2ccc3ccccc3c2)cc1	i	-2.6	0.2	.	1.1	0.71	-3.2
O=C(Nc1ccc([N+](=O)[O-])cc1)c1cccc(S(=O)(=O)Nc2ccccn2)c1	i	1.4	-4.0	.	4.4	0.59	-3.1
Cc1ccnc(NC(c2ccccc2O)c2oc(CO)cc(=O)c2O)c1 (stereo not drawn)	i	3.6	-0.2	0%	2.5	0.69	7.3
Cc1cccc(Oc2cc(NC(=O)c3ccccc3)cc([N+](=O)[O-])c2)c1	.	-0.7	-1.4	-3%	4.6	0.72	.
COc1ccccc1NC(=O)c1sc2ncn(CC(=O)N3CCC(C)CC3)c(=O)c2c1C	i	1.0	0.9	.	-20	0.7	-3.2
CCN(C[C@H]1N[C@@](CC)(C(=O)OC)[C@H]2C(=O)N(Cc3ccccc3)C(=O)[C@@H]12)S(=O)(=O)c1ccc(C)cc1	i	.	0.8	.	.	.	-69
CCOc1ccc(S(=O)(=O)N2CCCCC2)cc1NC(=O)CN1CCCC1c1cccs1 (stereo not drawn)	i	.	0.4	6%	2.7	0.73	-2.8
O=C(Nc1ccccc1)Nc1nnc([C@H]2C[C@H](O)[C@@H](CO)O2)s1	i	.	-1.3	.	.	.	-16
COc1ccc(S(=O)(=O)O/N=C2\CCCc3ccccc32)cc1	.	-2.4	1.6	12%	.	.	.
O=C(CCS(=O)(=O)c1ccccc1)Nc1ccccc1F	i	?	0.8	14%	1.3	0.72	-1.6
CC1(C)CC(=O)c2sc(N3CCCCC3)nc2C1	.	1.0	2.7	-6%	5.3	0.64	.
CCOCCOC(=O)C1=C(C)N(C)C(=O)NC1c1ccccc1Cl (stereo not drawn)	.	-1.4	-1.5	3%	-6.2	0.71	.
COc1ccc(CNC(=O)C(c2ccncc2)N(C(=O)Cc2cccs2)c2ccccc2)cc1 (stereo not drawn)	i	.	-5.2	.	-0.1	0.71	-1.6
CN(Cc1ccc(C(F)(F)F)cc1)C(=O)c1ccc(Oc2ccccc2)cc1	i	-2.9	0.7	-4%	4.8	0.66	-12
Cc1ccc(S(=O)(=O)NCCSc2nnnn2-c2cc(C)ccc2C)cc1	.	0.4	4.8	3%	2.3	0.73	.
Cc1nc(NC(=O)c2ccccc2)sc1C1(C)CC(c2ccc(OC(F)(F)F)cc2)=NO1 (stereo not drawn)	.	-2.3	.	.	0.3	0.63	.
CCN(C(=O)CSc1nc2nc(C)cc(C)n2n1)c1cccc(C)c1	.	-0.4	-0.3	8%	0.4	0.65	.
COc1ccc(C2=Nc3ccccc3NC(=O)C2N(CCc2ccccc2)C(=O)c2cccs2)cc1 (stereo not drawn)	i	.	-1.6	.	.	.	0.2
c1ccc2nc3c(nc2c1)[nH]c1ccccc13	.	0.2	-4.5	3%	-8.4	0.67	.
COc1ccc(COC(=O)C2=C(C)NC(=O)NC2c2ccc(O)cc2)cc1 (stereo not drawn)	i	-0.6	-0.4	4%	2.9	0.61	2.8
Cn1nnnc1SCC(=O)Nc1ccccn1	.	-0.5	-1.3	32%	-0.3	0.7	.
CC(=O)N1N=C(c2ccc(C)cc2)CC1c1ccc2c(c1)OCO2 (stereo not drawn)	i	-3.1	1.7	.	6.0	0.69	.
Cc1[nH]c2ccccc2c1/C=C(\C#N)C(=O)NC(C)c1ccccc1 (stereo not drawn)	.	-0.9	-1.0	?	0.7	0.74	.

Single records (already shown).
Shown for CCOCCOC(=O)C1=C(C)N(C)C(=O)NC1c1ccccc1Cl (stereo not drawn) : FGF22 binding = .; RanGTP-Imp inh = -1.4; HNF4A DNA FP = -1.5; Vif TR-FRET = 3%; UCH37 inh = -6.2; E coli growth = 0.71; AF4-AF9 inh = .
Shown for COc1ccc(C2=Nc3ccccc3NC(=O)C2N(CCc2ccccc2)C(=O)c2cccs2)cc1 (stereo not drawn) : FGF22 binding = i; RanGTP-Imp inh = .; HNF4A DNA FP = -1.6; Vif TR-FRET = .; UCH37 inh = .; E coli growth = .; AF4-AF9 inh = 0.2

Remaining list, next part.
SMILES	FGF22 binding	RanGTP-Imp inh	HNF4A DNA FP	Vif TR-FRET	UCH37 inh	E coli growth	AF4-AF9 inh
O=C(CCCCCn1c(=O)[nH]c2ccsc2c1=O)NCc1cccs1	.	2.5	1.3	-13%	1.9	0.68	.
COc1ccc(C2NC(=S)NC3=C2CCc2cc(OC)ccc23)cc1 (stereo not drawn)	.	-5.2	5.2	7%	-12	0.74	.
O=C(NN=C1CCCC1)c1cccc(Br)c1	i	-1.6	-0.1	.	4.9	0.66	1.0
CCOc1cccc(C(=O)NC2=NCCS2)c1	i	2.0	4.0	.	3.8	0.6	-8.1
Cc1ccc(NC(=S)N2CCC(C(=O)c3ccc(F)cc3)CC2)cc1C	i	.	2.4	.	1.7	0.71	0.5
O=C(COc1cccc2ccccc12)Nc1cc(Cl)ccc1C(=O)O	i	1.2	-3.2	.	.	.	-5.6
Cc1c(NS(=O)(=O)c2cccc(C(=O)Nc3cccc(F)c3)c2)c(=O)n(-c2ccccc2)n1C	i	.	-1.3	7%	-0.3	0.66	-7.2
Cn1c(SCC(=O)c2ccc(-c3ccccc3)cc2)nnc1-c1ccco1	.	3.0	-1.7	-4%	2.8	0.72	.
Cc1ccccc1C(=O)Nc1ccnn1C1CCN(Cc2c(C)n(C)c3ccccc23)CC1	i	5.3	-1.3	.	2.5	0.69	21
Cc1c(OCC(=O)N2CCC(C(N)=O)CC2)ccc2c1oc(=O)c1ccccc12	i	-0.5	-1.6	.	-354	0.71	-1.6
Cn1c(=O)c2c(nc(CN3CCN(Cc4ccccc4)CC3)n2Cc2ccc(Cl)cc2)n(C)c1=O	i	2.6	0.5	1%	2.5	0.67	7.1
COc1cccc(/C=N/Nc2nc3ccccc3n3cnnc23)c1O	i	-4.7	0.1	14%	.	.	0.0
Nn1c(Cc2ccccc2F)n[nH]c1=S	i	4.4	-0.7	-2%	2.7	0.72	-4.9
CSc1ccccc1OCc1cc(C(=O)N(C)C(C)c2ccccn2)no1 (stereo not drawn)	i	-3.3	-2.0	.	4.4	0.74	0.7
O=C(NC1CCCC1)c1noc2c1CCCCC2	.	?	-1.2	0%	4.3	0.66	.
Cc1ccc(OCCSc2nc3ccccc3n2CC(=O)O)cc1	i	1.8	-1.6	.	2.9	0.61	-8.3
CC(C)(C)OC(=O)N1CCC(C(=O)Nc2cccc(C(=O)NCCc3ccccc3)c2)CC1	i	.	1.9	.	.	.	-0.5
CS(=O)(=O)Nc1ccc(N2CCCCC2)c(Cl)c1	.	3.0	5.1	19%	2.0	0.65	.
CCCCCCCCCCOC(=O)Cn1c(COc2ccccc2OC)[n+](C)c2ccccc21	i	8.8	3.8	.	.	.	19
N#Cc1c2n(c3c(N)ncnc13)CCCCC2	i	-3.3	5.4	-4%	0.7	0.67	0.6
CC(C)N(C(=O)Cn1cc(S(=O)(=O)CC(=O)Nc2ccccc2)c2ccccc21)C(C)C	i	-0.6	1.5	6%	2.3	0.7	1.1
Cc1ccc(C(=O)NCCSc2snnc2C)cc1	.	5.9	1.7	1%	0.7	0.8	.
Cc1ccc(C(=O)Nc2nc3ccccc3n3nnnc23)cc1	.	-1.1	2.2	-6%	8.2	0.71	.
NS(=O)(=O)c1cccc(NC(=O)COC(=O)CSCc2ccccc2)c1	i	.	0.7	.	1.9	0.73	-3.6
Cc1[nH]nc2nc(SCC(=O)NCC3CCCO3)n(-c3ccc(Br)cc3)c(=N)c12 (stereo not drawn)	.	?	0.7	5%&2%	-0.2	0.74	.
Cc1ccc(C)c2nc3sc(C(=O)O)cc3cc12	i	0.0	3.5	4%	-134	0.67	-2.1
O=C(Cc1ccccc1)NNC(=S)NC(=O)c1cccnc1	i	1.9	-0.4	.	4.1	0.65	-0.5
CN(C)Cc1nc2c(c(=O)[nH]1)C(C)(C)Cc1ccccc1-2	.	-3.2	-0.6	4%	-0.8	0.67	.
Cc1ccc(NC(=O)C(C)c2cccc(C(=O)c3ccccc3)c2)cc1 (stereo not drawn)	.	3.9	1.9	-1%	2.9	0.7	.
COc1ccccc1C(=O)NC(=O)COC(=O)c1ccc([N+](=O)[O-])cc1Cl	i	.	-0.6	-1%	3.3	0.69	-4.1
CSc1ccc(Cl)c(C(=O)Nc2ccc(C)cn2)c1	i	-3.0	2.3	11%	-0.1	0.71	-0.1
CCN1CCN(S(=O)(=O)c2ccc(Cl)c(C(=O)Nc3ccccc3N3CCCCC3)c2)CC1	i	0.0	-3.8	-1%	3.7	0.69	-6.4
Cc1cc(C)nc(NS(=O)(=O)c2ccc(NC(=O)C3CC3)cc2)n1	i	-4.4	-1.7	.	3.6	0.65	-3.8
CS(=O)(=O)c1nc(-c2ccc(Br)cc2)n[nH]1	.	-3.5	-3.3	.	0.9	0.69	-1.7
Cc1ccc(CC(=O)NNC(=O)c2ccncc2)cc1C	i	-1.6	-1.5	-14%	0.4	0.66	-5.3
CCc1cccc2c(C#N)cn(CC(=O)NCCOC)c12	.	3.1	-1.9	?	-1.0	0.73	.
Cc1cc(S(=O)(=O)N2CCCC2)ccc1OCC(=O)NCc1ccccn1	i	0.5	-0.1	-3%	6.7	0.65	-1.6
C/C=C/C=[N+](\[O-])C(C)/C(=N/O)c1ccc(F)cc1 (stereo not drawn)	.	-2.4	-1.9	5%	.	.	.
C=CCn1c(SCC(=O)NC2CCCCC2)nnc1-c1cccnc1	i	.	0.1	.	1.7	0.66	-1.5
COc1ccc(NC(=O)CC2SC(=N)N(c3ccccc3)C2=O)c(OC)c1 (stereo not drawn)	i	-4.1	2.1	-3%	1.1	0.71	-3.4
